Compound activity (PubChem)
gsp antag: qHTS for Antagonists of gsp, the Etiologic Mutation Responsible for Fibrous Dysplasia/McCune-Albright Syndrome: qHTS | gsp-mutant cells, cAMP HTRF, 30 min; control for the full effect not named in the record | Potency, µM (titrated, usually from 76.9 µM), for the others: at the highest dose activity change, negative = inhibition, most hits filed as inhibitors | actives 0.4% (n = 340,000) | AID 624288, 2012; active = falling curve of any shape with a large fitted effect; inconclusive = falling curve, mostly with a smaller effect; inactive = flat or rising curve; cell line not stated here;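 further: intracellular cAMP measured with PDE inhibitor Ro 20-1724 present during compound exposure; potency means the concentration at half of the fitted maximal effect; on the % scale 0 is the no-effect control and ±100 the full control effect; nearly all actives have a fitted effect of over 65% in size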
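HTRF cAMP read-out (cAMP-d2 plus anti-cAMP antibody-K in lysis buffer, 30 min RT). Before lysis, cells are exposed to compounds with […] for 30 min at 37C in DPBS containing Ca/Mg, BSA and Tween 20.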
gsp ag: qHTS for Agonist of gsp, the Etiologic Mutation Responsible for Fibrous Dysplasia/McCune-Albright Syndrome: qHTS; gsp mutant cells, cAMP HTRF, 30 min; control for the full effect not named in the record; Potency, µM (highest dose often 76.9 µM), for inactives: top-dose activation (cAMP increase), usual class: activators; actives 0.13% (n = 340,000); AID 624287, 2012; active = well fitted activation curve with a large enough effect; inconclusive = small, poorly fitted or top-dose-only effect, or another doubt; inactive = no such curve, though single readings can be large or run the other way; cell line not stated here;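 further: phosphodiesterase inhibitor Ro 20-1724 added with compounds to block cAMP breakdown; potency means the concentration at half of the fitted maximal effect; nearly all actives have a fitted effect of over 60% in size; about a fifth of the inactives were tested at one dose only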
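Cells in DMEM/10% FBS with G418 were pretreated with compounds in DMSO plus […] (300 uM stock) for 30 min at 37C. cAMP was measured by HTRF (cAMP-d2 plus anti-cAMP antibody-K) after 30 min at room temperature.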
PINK1 modulator: A Quantitative High throughput Screen to Identify Chemical Modulators of PINK1 Expression. PINK1 immunofluorescence, high-content cytometry, 24 h. Potency, µM (top dose mostly 76.6 µM), without a hit: top-dose activation (PINK1 increase), most hits filed as activators. actives 0.2% (n = 410,000); active = well fitted activation curve with a large enough effect; inconclusive = small, poorly fitted or top-dose-only effect; inactive = flat fitted curve, though single readings scatter; cell line not stated here;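 further: potency means the concentration at half of the fitted maximal effect; % of control where 0% means no effect; nearly all actives have a fitted effect of over 65% in size; a mitochondrial uncoupler was the plate control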
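Cells are seeded, rested 12 hours, then given compound at five concentrations or DMSO for 24 hours. After fixation, blocking and antibody staining, PINK1 amount and mitochondrial localization are scored; CCCP serves as control.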
Sfp PPTase inh: qHTS Assay for Inhibitors of Bacillus subtilis Sfp phosphopantetheinyl transferase (PPTase); 4'-phosphopantetheinyl transferase ffp (Bacillus subtilis), Q9F4F7; Biochemical Sfp PPTase activity, qHTS; Potency, µM, for the others: max response, negative = inhibition, actives largely listed as inhibitors; actives 3.5% (n = 310,000); AID 1490, 2009; active means well fitted inhibition curve with a large enough effect; inconclusive means small, poorly fitted or top-dose-only effect, or another doubt; inactive means no such curve, though single readings can be large or run the other way;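 further: the enzyme is Sfp with the accession as filed and its product quenches rhodamine fluorescence; potency means the concentration at half of the fitted maximal effect; 0% = enzyme reaction without inhibitor and -100% = no enzyme wells; top concentration of the series not given in the record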
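Fluorescence-quenching assay: 15 nM Sfp-PPTase preincubated 15 min at room temperature with compound, then 5 uM rhodamine-CoA and 12.5 uM BHQ-2-labelled YbbR peptide added. Fluorescence (ex 525/em 598 nm) read at start and after 30 min; difference gives rate.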
ClpP mod: qHTS Assay for Activators of ClpP; ATP-dependent Clp protease proteolytic subunit (Bacillus subtilis (strain 168)), P80244; purified B. subtilis ClpP, FRET peptide cleavage, 20 min; Potency, µM (highest dose often 57.5 µM), inactives show at the top dose activity change, negative = active; actives 1.9% (n = 340,000); AID 651965, 2013; active = well fitted falling curve with a large enough effect; inconclusive = small, poorly fitted or top-dose-only effect; inactive = no such curve, though single readings can be large or run the other way; further: potency means the concentration at half of the fitted maximal effect; the source files actives as falling curves though it sought activators and does not explain the sign; nearly all actives have a fitted effect of over 65% in size; many hits overshoot -100%
Target sequence (P80244 whole entry, looked up): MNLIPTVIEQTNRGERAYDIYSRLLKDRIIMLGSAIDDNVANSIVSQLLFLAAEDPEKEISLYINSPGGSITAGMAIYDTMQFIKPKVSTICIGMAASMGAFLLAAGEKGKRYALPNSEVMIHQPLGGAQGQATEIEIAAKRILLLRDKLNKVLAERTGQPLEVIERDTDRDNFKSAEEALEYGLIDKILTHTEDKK
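ClpP 10 microg/mL final, pH 8 Tris/KCl buffer with BSA, glycerol, Tween-20; compound pinned in; FRET-FV substrate; RT 20 min; Ex320/Em430; ΔFRET vs ADEP 5.8 microM, DMSO, no enzyme.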
Menin-MLL FL inh: qHTS Assay for Inhibitors Targeting the Menin-MLL Interaction in MLL Related Leukemias: Competition With Fluorescein Labeled MLL-derived Peptide | Fluorescence polarization, fluorescein-MLL peptide displacement from menin | FP activity change, % at 61.4 µM | 290,000 tested, under 10 active | AID 1766, 2009; inconclusive = falling polarisation curve, or a change in total fluorescence; inactive = total fluorescence flat and polarisation flat or rising; no compound was filed as active; the % refers to the polarisation; negative = inhibition;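 further: % of control where 0% means no effect; inhibitors lower the polarisation; unlabelled MLL peptide was the positive control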
D2 ag: Beta-Arrestin HTS for Positive Allosteric Modulators of the Human D2 Dopamine Receptor: Agonists; D(2) dopamine receptor (Homo sapiens), P14416; DiscoveRx PathHunter D2 beta-arrestin, luminescence, 90 min; 100% = 57 uM dopamine signal; activation, % (no concentration beside the values); actives 0.084% (n = 360,000); AID 624465, 2012; in the data active = activation above about 40%; inconclusive = about 15% to 40%; inactive = below about 15%; further: compound concentration not given in the record; the text of the record calls up to 30% inactive
Target sequence (P14416 whole entry, looked up): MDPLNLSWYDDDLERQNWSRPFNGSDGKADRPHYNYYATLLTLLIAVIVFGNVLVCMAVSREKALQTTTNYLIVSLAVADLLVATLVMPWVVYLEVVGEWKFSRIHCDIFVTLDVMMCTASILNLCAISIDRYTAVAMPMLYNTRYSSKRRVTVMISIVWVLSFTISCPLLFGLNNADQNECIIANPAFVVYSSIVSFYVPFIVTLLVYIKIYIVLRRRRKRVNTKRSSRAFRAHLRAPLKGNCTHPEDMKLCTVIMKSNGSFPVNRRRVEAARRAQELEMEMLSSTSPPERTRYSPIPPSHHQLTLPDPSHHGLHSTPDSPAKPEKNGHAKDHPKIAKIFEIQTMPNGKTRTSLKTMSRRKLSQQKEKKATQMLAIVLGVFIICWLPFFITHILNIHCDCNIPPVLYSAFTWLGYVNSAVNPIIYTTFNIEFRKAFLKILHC
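DiscoveRx PathHunter D2 beta-arrestin cells (2,100/well) attached overnight, then compound-stimulated 90 min at 37 C in HBSS/10 mM HEPES/0.1% Tween-20 buffer; beta-galactosidase complementation read by luminescence after 1 h at ambient temperature. Dopamine 57 uM final (EC100) as control.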
Numbers without * were called inactive; u = inconclusive; x = not tested or not shown; [ ] = dose if it differs, or a comment.

SMILES	gsp antag	gsp ag	PINK1 modulator	Sfp PPTase inh	ClpP mod	Menin-MLL FL inh	D2 ag
O=C(c1ccco1)N1CCN(Cc2cc(=O)c(OCc3ccccc3F)co2)CC1	15.7%	-3.3%	-0.6%	x	1.2%	x	-0.1
O=C(c1ccco1)c1cn(CC(=O)N2CCCCC2)c2ccccc12	-15.4%	1.5%	-0.2%	4.5%	-2.1%	8.6	-0.5
O=c1c(-c2ccccc2)nc2cnc(Oc3ccccc3)nc2n1C1CC1	x	x	-0.8%	14.7%	x	0.2	x
COc1ccc(-n2c(N)cc(=O)[nH]c2=O)cc1	7.8%	6.4%[15.4 µM]	-0.8%	8.6%	x	-0.8	-19.2
COc1cc(OC)c(C(=O)OCC(=O)NC23CC4CC(CC(C4)C2)C3)cc1OC	9.8%	17.9%	10.4%	x	-5.5%	x	-2.1
Cc1ccc(C)c(NC(=O)C(c2ccccc2)N2CCN(CC(=O)N3CCOCC3)CC2)c1 (configuration not stated)	-2.7%	3.9%	0.1%	x	-4.0%	x	2.0
N#CCCN(C(=O)CN1CCN(S(=O)(=O)c2ccc3c(c2)OCCO3)CC1)c1ccc(F)cc1	6.8%	-2.2%	-1.2%	x	-2.6%	x	-1.5
COc1ccc(NS(=O)(=O)c2cc(NC(=O)c3ccc(=O)[nH]c3)ccc2N2CCCC2)cc1	-8.3%	-13.9%	4.0%	-16.9%	-3.1%	x	-2.0
COc1ccccc1N1CCN(C(=O)Cc2c(C(=O)O)[nH]c3ccc(Cl)cc23)CC1	13.1%	u	-2.3%	13.5%	x	-0.3	4.4
Cc1ccccc1CC(=O)N1CCN(S(=O)(=O)c2ccc(Cl)s2)CC1	-2.5%	-1.8%[15.4 µM]	0.7%	x	-2.4%	x	-2.9
C[C@H]1CCC(=O)N([C@H](COc2ccccc2)Cc2ccccc2)CC1	-13.8%	15.7%	2.0%	-13.8%	-3.3%	-3.3	-1.6
Cn1nnc2cc(C(=O)NC(C)(C)C)ccc21	2.8%	-14.8%	3.2%	9.1%	3.7%	0.6	-2.1
Cc1ccc(NS(=O)(=O)c2cccc(C(=O)NCCCN3CCOCC3)c2)cc1	10.8%	0.3%	-1.7%	x	-1.3%	x	1.2
O=C(c1cccs1)N(CC1CCCO1)c1nc(-c2ccccc2)cs1 (configuration not stated)	-22.8%	-0.6%	2.7%	-19.5%	-1.3%	5.4	-2.8
C=CCNc1nnc(SCC(=O)N2CCCCC2)c2ccccc12	-0.6%	-36.4%	2.4%[38.3 µM]	u	-24.4%	u	-2.5
O=C(CC1NCCc2ccccc21)Nc1ccc(Cl)cc1 (configuration not stated)	-0.5%	-25.1%	-0.8%	7.1%	x	-0.2	-0.5
Cc1cccc2c3c([nH]c12)C(=O)CC(C)(C)S3	2.4%	-14.1%[15.4 µM]	4.0%	15.8%	-0.2%	-5.5	-6.8
NC(=O)c1cccc2ccccc12	7.1%	22.3%	0.7%	20.5%	-20.9%	3.3	-3.9
CC1C(=O)NC(=O)C1c1ccccc1 (configuration not stated)	17.4%	5.2%[15.4 µM]	1.3%	4.6%	0.2%	5.8	-4.0
COc1ccc(NC(=O)C(C)Sc2nnc3c4c(nc(-c5ccc(OC)cc5)n23)CC(C)(C)OC4)cc1 (configuration not stated)	-14.1%	-1.0%	4.9%	-15.0%	-23.1%	1.6	-2.6
Cc1cccc(N2CCN(CC(=O)Nc3ccc(S(=O)(=O)N4CCOCC4)cc3)CC2)c1C	u	15.4%	0.4%	1.8%	0.8%	x	0.8
CCc1nc2ccc(C(=O)Nc3ccc(C(=O)N(C)C)cc3)cn2c1N(C)CCCc1ccccc1	x	x	4.1%	x	-1.9%	x	1.5
O=C(c1ccco1)N1CCN(C(=O)c2nn3cccnc3c2Cl)CC1	7.9%	3.3%	11.8%[38.3 µM]	18.6%	1.3%	5.3	-0.4
COc1ccc(OC)c(NC(=O)C2CCN(S(=O)(=O)c3c(C)noc3C)CC2)c1	15.0%	4.5%	1.0%	9.1%	3.0%	1.2	-2.4
COc1ccccc1C(=O)Nc1sc(C(=O)N2CCCC2)c(C)c1C#N	3.9%	-32.4%[inhibitor]	2.8%	-18.6%	x	-1.1	0.6
(more compounds)
SMILES	gsp antag	gsp ag	PINK1 modulator	Sfp PPTase inh	ClpP mod	Menin-MLL FL inh	D2 ag
O=S(=O)(c1c(Cl)sc(Cl)c1Br)N1CCCC1	-7.8%	-4.5%	-1.2%	5.8%	1.5%	-1.5	1.5
COc1ccc(C2CC(c3cccs3)=NN2S(=O)(=O)c2ccc(C)cc2)cc1 (configuration not stated)	-1.5%	u	0.8%	x	-1.0%	x	-5.1
Cc1cc(NC(=O)C(C)N2C(=O)c3ccccc3S2(=O)=O)no1 (configuration not stated)	-3.1%	u	4.7%	x	-3.5%	x	-5.1
COCCNC(=O)CSc1nc2cc(OC)c(OC)cc2c(=O)n1Cc1ccco1	7.6%	32.4%	-0.4%	2.2%	-1.6%	3.3	-1.7
CCOc1ccc(/C(O)=C2/C(=O)C(=O)N(CC3CCCO3)C2c2ccco2)cc1 (configuration not stated)	16.1%	u	-1.3%	-9.2%	-0.2%	5.7	-0.8
O=C(Nc1nc2nccc(-c3ccccc3)n2n1)c1ccc(F)cc1	0.5%	0.4%	1.8%	-10.6%	28.2µM*	-1.3	-0.3
Cc1ccc(OCC(=O)O/N=C(\N)Cc2ccc(Cl)cc2)cc1	10.8%	-10.6%	0.1%	4.7%	-0.7%	0.1	-2.5
CCOC(=O)C(Cc1ccccc1)NS(=O)(=O)c1ccc(NC(C)=O)cc1 (configuration not stated)	0.0%	-14.4%	-1.1%	11.1%	0.9%	-0.7	0.8
COc1ccc([N+](=O)[O-])cc1N(CC(=O)Nc1ccccc1C(=O)N1CCOCC1)S(C)(=O)=O	8.3%	-24.9%	1.4%	13.7%	-5.6%	x	-3.8
CCC(=O)N1CCc2cc(Br)cc(S(=O)(=O)NCCN3CCCCC3CC)c21 (configuration not stated)	-3.5%	-3.4%	-0.3%	4.7%	0.9%	2.6	-3.6
Cc1ccc(-c2c(NC(=O)C(C)C)n(C)c3ccccc3c2=O)cc1	-4.5%	-2.4%[15.4 µM]	2.8%	13.2%	-3.0%	-1.2	-5.1
COC(=O)c1ccncc1C(=O)Nc1ccc(F)cc1	-1.9%	14.4%[15.4 µM]	0.1%	16.8%	x	0.6	2.9
COc1ccccc1N1CCN(C(=O)c2cc(-c3ccc4c(c3)OCO4)on2)CC1	16.1%	-12.8%	7.1%[38.3 µM]	9.8%	1.7%	4.5	-2.6
O=C(NC(Cc1c[nH]c2ccccc12)C(=O)O)/C(=C/c1ccco1)NC(=O)c1ccccc1 (configuration not stated)	-2.0%	0.6%	6.4%	44.7µM*	x	u	-4.1
CC1(C(=O)Nc2cnc3ccccc3c2)CCN1Cc1ccccc1OC(F)F (configuration not stated)	x	x	10.1%	x	-8.2%	x	6.8
Cc1ccccc1N=C(NO)c1nonc1N	10.0%	10.4%[15.4 µM]	-0.9%	16.5%	x	1.4	-2.0
CC(=O)Nc1ccc(NC(=O)COC(=O)C2CCC(C(C)(C)C)CC2)cc1 (configuration not stated)	6.7%	-52.0%	11.1%	x	2.0%	x	2.5
CCN(CC)CCN1C(=O)C(=O)/C(=C(/O)c2ccc(S(=O)(=O)N3CCOCC3)cc2)C1c1ccc(Cl)cc1 (configuration not stated)	11.2%	5.3%[15.4 µM]	1.3%	7.1%	x	-3.0	-2.8
C[C@H](CO)N1C[C@H](C)[C@@H](CN(C)C(=O)Nc2ccc3c(c2)OCO3)Oc2ccc(NC(=O)CCC(F)(F)F)cc2C1=O	5.5%	u	-0.5%	x	-1.1%	x	4.7
CC(C)(C)C(=O)c1sc(Nc2ccccc2)nc1N	1.4%	-33.6%[inhibitor]	x	u	-0.9%	-1.2	1.3
Nc1nc2nc(-c3ccc(Cl)cc3)cc(C(F)(F)F)n2n1	13.5%	-47.7%[inhibitor]	0.1%	5.5%	u	-2.6	-2.5
C[C@@H]1CN([C@@H](C)CO)C(=O)CCCn2nncc2CO[C@@H]1CN(C)C(=O)Cc1ccccc1	x	-87.1%[inhibitor]	0.2%	x	1.4%	x	-5.6
COc1c[nH]n(-c2ccccc2)c(=O)c1=O	-12.9%	-2.1%	1.9%	x	0.0%	x	-1.7
CC1CC1C(=O)OCC(=O)Nc1cccc(S(=O)(=O)NC2=NCCCCC2)c1 (configuration not stated)	12.2%	-14.5%[15.4 µM]	1.4%	-1.9%	x	0.7	-4.0
CCc1cc2c(C)ccc(C)c2nc1SCC(=O)Nc1c[nH]c(=O)[nH]c1=O	-7.0%	u	-0.8%	15.3%	x	2.1	-0.1
Going on with the list.
SMILES	gsp antag	gsp ag	PINK1 modulator	Sfp PPTase inh	ClpP mod	Menin-MLL FL inh	D2 ag
CCOC(=O)N1CCN(C(=O)c2ccc3c(c2)NC(=O)/C(=C\c2ccc(OC)c(OC)c2)S3)CC1	-0.1%	11.5%	0.8%	-4.2%	2.1%	15.4	1.2
CCCCCCc1nc2c(=O)[nH]c3ccccc3c2o1	12.3%	-5.1%	-2.1%	13.2%	-0.3%	-0.2	-5.0
Cc1cc([N+](=O)[O-])ccc1NCc1cccc2ccccc12	-9.0%	-16.3%	x	x	-4.9%	x	1.2
CC(C)(C)C(=O)N1NC(=Nc2ccccc2)SC1(C)C	0.4%	-1.7%[15.4 µM]	2.7%	16.1%	x	1.2	-3.4
O=C(O)C1OC(C(=O)O)C(C(=O)O)C1C(=O)O (configuration not stated)	-9.4%	13.8%	-3.8%	x	-2.0%	x	-0.7
O=C(C/C=N\OCc1ccc(Cl)cc1Cl)Nc1ccccc1	11.7%	0.6%	0.4%	9.0%	x	-0.2	2.4
O=C(CCCOc1ccccc1)NCc1ccco1	5.1%	0.0%	-2.0%	-13.4%	-2.8%	7.8	0.5
